Screens from PubChem BioAssay.
StopGo FLuc: lowers the firefly signal of an FMDV 2A StopGo reporter; HEK cells with a luciferase reporter of 2A StopGo recoding; Potency, µM (doses to about 57.5 µM), for inactives: at the highest dose signal change, negative = less light; 0.23% of 120,000 active; active = well fitted falling curve with a large enough effect; inconclusive = small, poorly fitted or top-dose-only effect; inactive = no such curve, though single readings can be large or run the other way; note: nearly all actives have a fitted effect of over 60% in size; overnight with compound
2A Renilla: lowers the Renilla signal of an FMDV 2A StopGo reporter; Potency, µM (series often up to 57.5 µM), without a hit: at the highest dose signal change, negative = less light; 0.32% of 120,000 active; HEK cells with a luciferase reporter of 2A StopGo recoding; active means well fitted falling curve with a large enough effect; inconclusive means small, poorly fitted or top-dose-only effect; inactive means no such curve, though single readings can be large or run the other way; note: nearly all actives have a fitted effect of over 55% in size; overnight with compound
* marks the source's active call; other numbers are inactive results; ? = inconclusive; [ ] = remark or other dose. % is set by controls: 0 for no effect and ±100 for the full control effect; potency is the fitted concentration of half-maximal effect. An excerpt; count on the stated rates, not on these rows.

nr	SMILES	StopGo FLuc	2A Renilla
1	Cc1cnc(C(=O)Nc2cccc(OC3CCCC3)c2)cn1	0%	-7%[1.06 µM]
2	O=C(Nc1ccc(CN2CCCC2)cc1)Nc1ccc2c(c1)OCCO2	185%[activator]	-6%
3	COc1ccc(OC)c(Nc2nc(NCC(C)C)nc3c2cnn3-c2ccccc2)c1	6%	0%
4	O=C(O)COCCOCC(=O)O	13%	13%
5	COc1cccc(Oc2c(C)oc3cc(OC)ccc3c2=O)c1	19%	30%[activator]
6	Cc1ccc(NC(=O)CSc2nc3ccc(NC(=O)CCc4ccccc4)cc3s2)cc1	-2%	-10%
7	O=C(Nc1cccc(Br)c1)N1CCC(CN2CCCCCC2)CC1	-14%	-11%
8	CCOc1ccc2oc(C(=O)N3CCN(CC(=O)Nc4ccc(F)cc4)CC3)c(C)c2c1	?	?
9	CC(NC(=O)c1ccc(Cl)cc1)C12CC3CC(CC(C3)C1)C2 (stereo not given)	-4%	-10%[1.06 µM]
10	FC(F)(F)c1ccccc1C(C#Cc1ccccc1)NCc1ccc2c(c1)OCO2 (stereo not given)	7%	22%
11	CCc1ccc(-c2cn3nc(CC)sc3n2)cc1	33%[activator]	1%
12	CCOc1ccc(NC(=O)c2ccc3[nH]c(C)cc(=O)c3c2)cc1	-1%	-12%

Screen by screen, as entered above:
StopGo FLuc, nos. 1 to 11: 0%, 185%[activator], 6%, 13%, 19%, -2%, -14%, ?, -4%, 7%, 33%[activator]

New compounds follow:
nr	SMILES	StopGo FLuc	2A Renilla
13	CN(CCCNc1ccccc1)c1nc(-c2ccncc2)nc2ccccc12	?	?
14	CC(C)c1ccc(-n2ccc3nc(N4CCOCC4)ncc3c2=O)cc1	64%[activator]	11%
15	CN(CC(=O)Nc1cccc(C(F)(F)F)c1)C1CCc2ccccc21 (stereo not given)	?	-28%
16	O=C(Cn1cnc2sc3c(c2c1=O)CCC3)NC1CCCc2ccccc21 (stereo not given)	-11%	-15%
17	CC(C)c1ccc2oc(=O)cc(CN3CCN(c4ccc(F)cc4)CC3)c2c1	-12%	-12%
18	Cc1ccc(-c2c(CN3CCN(c4cc(C)ccc4C)CC3)csc2C)cc1	-13%	-2%
19	C/C=C/C=C/C(=O)Nc1ccc(SC)cc1	86%[activator]	19%
20	CS(=O)(=O)Cc1ccc(C(=O)Oc2ccc(Br)cc2)cc1	-6%	-2%
21	CCOc1ccc(-n2c(=O)c3c(C)c(C)sc3n(CC(=O)N(CC)Cc3ccccc3)c2=O)cc1	-2%	6%
22	CCOCCCNC(=O)C1CCCN(c2ncnc3onc(C)c23)C1 (stereo not given)	?	?
23	CCOc1cc(C2c3c(-c4cc(C)ccc4O)n[nH]c3C(=O)N2CCCOC(C)C)ccc1O (stereo not given)	-7%	-13%
24	Cn1c2ccccc2c2c(C(=O)N3CCN(c4cccc(C(F)(F)F)c4)CC3)cn(C3CCCCC3)c(=O)c21	40%[activator]	50%[activator]

Additional entries.
nr	SMILES	StopGo FLuc	2A Renilla
25	N#C/C(=C/c1csc(-c2ccsc2)n1)C(=O)NC1CC1	52%[activator]	28%
26	Fc1ccc(/C=N/Nc2cc(C(F)(F)F)ccc2Cl)c(F)c1	-6%	-3%
27	COc1ccc(C2C=C(C(=O)O)Nc3ncnn32)cc1 (stereo not given)	6%	-6%
28	Cc1cccc(NC(=O)C2(C#N)C(c3ccccc3)C2(C)C(=O)c2ccccc2)c1 (stereo not given)	9%	63%[activator]
29	COc1ccc(NC(=O)CCc2nc(C3=CCN(Cc4cccc(Cl)c4)CC3)no2)c(OC)c1	-4%	3%
30	Cc1cccc(-n2nnnc2C2(N)CCCCC2)c1	0%	26%
31	CCOC(=O)C1=C(N)Oc2cc(O)ccc2C1c1ccc(F)cc1F (stereo not given)	-13%	-5%
32	N#Cc1cccc(Oc2ccc(Cl)c(Oc3cccc(C#N)c3C#N)c2)c1C#N	?	?
33	COC(=O)C[N+]1(CC=C(C)C)CCCCC1	-2%	2%
34	Cc1ccc(NC(=O)c2cc(-c3ccccn3)nc3ccccc23)c(O)c1	0%	31%[activator]
35	C=C(C)Cn1c(N2CCN(Cc3c(F)cccc3Cl)CC2)nc2c1c(=O)[nH]c(=O)n2C	12%	12%
36	CCOC(=O)C1CCCN(C(=O)CSC(C)(C)C)C1 (stereo not given)	20%	12%

Further entries follow.
nr	SMILES	StopGo FLuc	2A Renilla
37	CCCN(CCC)CCCNC(=O)Cn1cc2c(n1)-c1c(oc(C(=O)N3CCCC3)c1C)CC2	5%	-4%
38	CN(C)c1ccc(/C=C/c2nc(-c3ccccc3O)n(-c3ccccc3)n2)cc1	24%	27%
39	N#Cc1ccc(S(=O)(=O)N2CCN(C(=O)c3cnn(Cc4ccccc4Cl)c3)CC2)cc1	-7%	-1%
40	COC(=O)c1oc2cc(OC)ccc2c1C	15%	22%
41	N#Cc1nc(C2CC2)oc1N1CCN(C(=O)c2cc(F)cc(F)c2)CC1	-12%	-5%
42	O=C(CSc1nnc2[nH]c(=O)cc(-c3ccccc3)n12)Nc1ccc(OC(F)(F)F)cc1	-12%	-6%
43	O=C1C(=O)N(C2CCN(C(=O)c3ccccc3F)CC2)CCN1Cc1ccc(F)cc1	-4%	-4%
44	COc1ccccc1-c1coc2cc(OCC(=O)OCCC(C)C)ccc2c1=O	-5%	-18%
45	Cc1cc2ccccc2n1CC(=O)Nc1ccccc1	0%	-11%
46	Cc1cc2c(cc1S(=O)(=O)NCc1ccccc1Cl)OCCN2C	-19%	?
47	CCOC(=O)C1CCN(c2nc3c(S(=O)(=O)c4ccc(C)c(C)c4)nnn3c3ccc(Cl)cc23)CC1	-12%	6%
48	COc1cccc(NC(=O)CCCc2nc(C(C)C)no2)c1	9%	6%

Single entries from above.
entry 42 @ StopGo FLuc = -12%
entry 38 @ StopGo FLuc = 24%
entry 48 @ 2A Renilla = 6%
entry 43 @ StopGo FLuc = -4%

The list continues.
nr	SMILES	StopGo FLuc	2A Renilla
49	CCCCc1[nH]nc2c1C1(C(=O)Nc3ccc(Cl)cc31)C(C#N)=C(N)O2 (stereo not given)	?	?
50	CCOC(=O)Oc1ccc2c(=O)c(Oc3ccc(C(C)(C)C)cc3)coc2c1	86%[activator]	15%
51	Cn1c(SCC(=O)Nc2nc3ccccc3s2)ncc(C(=O)Nc2ccccc2)c1=O	-12%	-5%
52	COc1ccc(NC(=O)C2CCCN(c3ncnc4c3nc3n4CCCCC3)C2)c(OC)c1 (stereo not given)	-12%	-2%
53	COc1ccc(NC(=O)Cn2cc(C(=O)C3CCCCC3)c3ccccc32)cc1	-18%	-9%
54	CC(C)Cc1nc(C#N)c(N2CCN(c3cccc(Cl)c3)CC2)o1	14%	1%
55	N#Cc1ccccc1NC(=O)CSc1ncn[nH]1	15%	9%
56	Cc1ccccc1CNCCSc1nnnn1C	-2%	2%
57	Cc1cccc(NC(=O)Cn2cc(C(=O)C3CCCCC3)c3ccccc32)c1	-3%	-5%
58	CCC(=O)Nc1c(C)cc(C)cc1C	1%	-6%[1.06 µM]
59	CCc1ccc(N(CC)C(=O)c2ccc3c(=O)n4c(nc3c2)CCCCC4)cc1	10%	-7%
60	Cc1cnc(C(=O)NCCc2c[nH]c3ccccc23)cn1	226%[activator]	0%

Grouped by structure, the entries above containing an NH in an aromatic ring.
nr	SMILES	StopGo FLuc	2A Renilla
12	CCOc1ccc(NC(=O)c2ccc3[nH]c(C)cc(=O)c3c2)cc1	-1%	-12%
23	CCOc1cc(C2c3c(-c4cc(C)ccc4O)n[nH]c3C(=O)N2CCCOC(C)C)ccc1O (stereo not given)	-7%	-13%
35	C=C(C)Cn1c(N2CCN(Cc3c(F)cccc3Cl)CC2)nc2c1c(=O)[nH]c(=O)n2C	12%	12%
42	O=C(CSc1nnc2[nH]c(=O)cc(-c3ccccc3)n12)Nc1ccc(OC(F)(F)F)cc1	-12%	-6%
49	CCCCc1[nH]nc2c1C1(C(=O)Nc3ccc(Cl)cc31)C(C#N)=C(N)O2 (stereo not given)	?	?
55	N#Cc1ccccc1NC(=O)CSc1ncn[nH]1	15%	9%
60	Cc1cnc(C(=O)NCCc2c[nH]c3ccccc23)cn1	226%[activator]	0%

Next section
nr	SMILES	StopGo FLuc	2A Renilla
61	COc1ccc(-c2noc(-c3ccc(NCCc4ccccc4)c([N+](=O)[O-])c3)n2)cc1OC	-3%	-5%
62	Cc1cccc(-c2c(NC(=O)C(C)C)oc3c(C)cccc3c2=O)c1	3%	-10%
63	CCOc1cccc(C(=O)Nc2ccc(S(=O)(=O)N(Cc3ccccc3)c3ccccc3)cc2)c1	?	-14%
64	COc1cccc(-c2ocnc2C(=O)Nc2ccc(Br)cc2F)c1	56%[activator]	7%
65	Cc1ccc(C2CCCN2C(=O)Nc2ccccc2Cl)cc1 (stereo not given)	9%	5%
66	COc1ccc(-c2nc3cnccn3c2NC2CCCC2)cc1	24%	-5%
67	CCN(CC)S(=O)(=O)c1ccc(NC(=O)C2CCCN(C(=O)c3ccc(Cl)cc3)C2)cc1 (stereo not given)	?	-11%
68	Cc1ccc(-c2csc(-c3c(N)c(C(=O)c4ccc5c(c4)OCO5)n4ccccc34)n2)cc1	19%	-3%
69	COc1ccc(NC(=O)CCc2c(C)nc3c(-c4ccccc4)c(C)nn3c2C)cc1Cl	-15%	-3%
70	CCOc1ccccc1CNC(=O)c1ccc(Cn2c(SCc3ccccc3)nc3cccnc32)cc1	63%[activator]	-10%
71	Cc1oc2cc(OCCN3CCN(C)CC3)ccc2c(=O)c1-c1ccc(Cl)cc1	?	?
72	O=C(COc1ccc2nc3n(c(=O)c2c1)CCC3)NC1CCCCCC1	22%	-3%

Structural class: those above containing a tert-butyl group.
nr	SMILES	StopGo FLuc	2A Renilla
36	CCOC(=O)C1CCCN(C(=O)CSC(C)(C)C)C1 (stereo not given)	20%	12%
50	CCOC(=O)Oc1ccc2c(=O)c(Oc3ccc(C(C)(C)C)cc3)coc2c1	86%[activator]	15%

The listing continues:
nr	SMILES	StopGo FLuc	2A Renilla
73	CCCCC(CC)COc1ccc(C(C)=O)cc1 (stereo not given)	-9%	3%
74	CCCOC(=O)C(C)n1nnc2sc(-c3ccccc3)cc2c1=O (stereo not given)	57%[activator]	-1%
75	COc1cccc(CNC(=O)CSC2=Nc3ccccc3C3=NC(C(C)C)C(=O)N23)c1 (stereo not given)	0%	30%[activator]
76	COc1ccc(OC)c(C(=O)c2oc3cc(NC(=O)C4CC4)ccc3c2C)c1	21%	101%[activator]
77	Cc1ccc(C)c(NCc2ccccn2)c1	16%	14%
78	CCOc1ccc2nc(N3CCCC(C(=O)NCCc4ccc(Cl)cc4)C3)sc2c1 (stereo not given)	9%	-3%
79	CCOc1ccc(/C=C2\SC(=S)N(C)C2=S)cc1	0%	6%
80	COc1cc(C(=O)/C=C/c2cccc(OC(C)C(=O)O)c2)ccc1O (stereo not given)	0%	25%
81	COc1ccc(N2CCN(S(=O)(=O)CCNC(=O)Cc3ccc(-c4ccccc4)cc3)CC2)cc1	12%	3%
82	CCc1ccc(-n2nc(CO)c(C(=O)NCc3ccccn3)n2)cc1	55%[activator]	20%
83	Cc1cc(C)cc(OCC(=O)N(Cc2ccc(Cl)cc2)CC2CCCO2)c1 (stereo not given)	-21%	6%
84	CCC(Nc1ccc(-c2nc(-c3ccco3)no2)cc1[N+](=O)[O-])c1ccccc1 (stereo not given)	43%[activator]	3%

(continued)
nr	SMILES	StopGo FLuc	2A Renilla
85	CCOC(=O)c1ccc(NC(=O)CN2C(=O)CC(c3ccc(C)c(C)c3)=Nc3ccccc32)cc1	114%[activator]	6%
86	COCc1nc2ccccc2n1CCOc1cccc(C)c1	6%	-4%
87	Cc1cccc(OCCOCCn2c(-c3ccc(Cl)cc3)nc3ccccc3c2=O)c1C	0%	8%
88	CC(C)CCNc1nc2c(c(=O)n(C)c(=O)n2C)n1Cc1ccc(Cl)cc1	-1%	-9%
89	Cn1nc(CC(=O)NC2CCCC2)c2ccccc2c1=O	32%[activator]	6%
90	CCCn1c(-n2nc(C)cc2C)nc2c1c(=O)n(CCOCC)c(=O)n2C	5%	-1%
91	Cc1ccc2c(c1)N(C(=O)Cn1c(=O)n(CCC(C)C)c(=O)c3sccc31)CCO2	-7%	12%
92	Cc1nc2ccc(Cl)cc2cc1C(=O)N1CCN(C(C)C)CC1	-10%	-17%
93	CCOc1ccc(NC(=O)Cn2cc(C(=O)c3ccc(OC)cc3)c(=O)c3cc4c(cc32)OCO4)cc1	-20%	-11%
94	COc1ccc2[nH]cc(CCNC(=O)CNc3nc(Cl)nc4nc[nH]c34)c2c1	-2%	-4%
95	Cc1c2cnn(CC(=O)NCCc3ccccc3)c(=O)c2c(C)n1Cc1ccccc1	-1%	1%
96	CCN(CC)S(=O)(=O)c1ccc(C)c(NC(=O)C2CCN(C(=O)C(C)(C)C)CC2)c1	-7%	10%

(listing goes on)
nr	SMILES	StopGo FLuc	2A Renilla
97	COc1ccc(NC(=O)c2cc3c(-c4ccccc4F)nn(C)c3s2)c(OC)c1	?	?
98	CCc1nc(-c2ccc(C)c(S(=O)(=O)N3CCN(c4ccc(C(C)=O)cc4)CC3)c2)no1	?	35%[activator]
99	COCCN(Cc1ccco1)C(=O)Cn1ncc2c([nH]c3ccccc32)c1=O	-6%	32%[activator]
100	CN(C(=O)Cn1nc(C(=O)O)c2ccccc2c1=O)C1(C#N)CCCCC1	-9%	-9%
101	CC(C)Oc1ccc(-c2nc(NCc3ccco3)c3ccccc3n2)cc1	200%[activator]	16%
102	Clc1ccc(CNc2cc(-c3ccccc3)nc3nncn23)cc1	22%	1%
103	CC1CCN(c2nc3c(c(=O)[nH]c(=O)n3C)n2CC(=O)O)CC1	46%[activator]	10%
104	COc1cccc(NC(=O)c2sc3nc(C)c(C(=O)Nc4ccc(C)cc4C)c(-c4ccco4)c3c2N)c1	-3%	-11%
105	O=C(c1ccccc1)C(Sc1ccccn1)c1ccccc1 (stereo not given)	-4%	17%
